TRPV1 potentiator: HTS Assay for Compounds that Act as Potentiators of the Vanilloid Receptor 1; TRPV1-expressing cells, Fluo-8 calcium influx, capsaicin EC20 potentiation; host cell line not named in the record; control for the full effect not named in the record; Transient receptor potential cation channel subfamily V member 1 (Homo sapiens), Q8NER1; potentiation, % at 8.33 µM; 320,000 compounds, 0.02% hits; active means potentiation above 80%; inconclusive means 30% to 80%; inactive means below 30%; note: 0% is about no effect
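Fluo-8 calcium influx in TRPV1-expressing cells, kinetic read (ex 480/em 520 nm). Compound added and read 3 min for agonist activity, followed by capsaicin at EC20 final and 2 min further read for enhancement.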
Menin-MLL FL inh: qHTS Assay for Inhibitors Targeting the Menin-MLL Interaction in MLL Related Leukemias: Competition With Fluorescein Labeled MLL-derived Peptide; Fluorescence polarization, fluorescein-MLL peptide displacement from menin; FP activity change, % at 61.4 µM; 290,000 tested, under 10 active; AID 1766, 2009; inconclusive = falling polarisation curve, or a change in total fluorescence; inactive = total fluorescence flat and polarisation flat or rising; no compound was filed as active; the % refers to the polarisation; negative = inhibition;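 note: % of control where 0% means no effect; inhibitors lower the polarisation; unlabelled MLL peptide was the positive control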
TRPML1 blocker: qHTS for Inhibitors of the Human Mucolipin Transient Receptor Potential 1 (TRPML1); TRPML1-inducible cells, Ca2+ dye fluorescence, FDSS; active compounds read low; inhibition of EC80 agonist-evoked calcium signal; activity change, negative = inhibition, % (test concentration not listed); 390,000 compounds, 0.02% hits; AID 624415, 2012; in the data active means activity change below about -50%; inconclusive means about -30% to -50%; inactive means above about -30%;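 note: stimulus is agonist 54-4 at its EC80 concentration; % is set by controls: 0 for no effect and ±100 for the full control effect; compound concentration not given in the record; the text of the record puts the active cut at -80%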
Target sequence (Q9GZU1 whole entry, looked up): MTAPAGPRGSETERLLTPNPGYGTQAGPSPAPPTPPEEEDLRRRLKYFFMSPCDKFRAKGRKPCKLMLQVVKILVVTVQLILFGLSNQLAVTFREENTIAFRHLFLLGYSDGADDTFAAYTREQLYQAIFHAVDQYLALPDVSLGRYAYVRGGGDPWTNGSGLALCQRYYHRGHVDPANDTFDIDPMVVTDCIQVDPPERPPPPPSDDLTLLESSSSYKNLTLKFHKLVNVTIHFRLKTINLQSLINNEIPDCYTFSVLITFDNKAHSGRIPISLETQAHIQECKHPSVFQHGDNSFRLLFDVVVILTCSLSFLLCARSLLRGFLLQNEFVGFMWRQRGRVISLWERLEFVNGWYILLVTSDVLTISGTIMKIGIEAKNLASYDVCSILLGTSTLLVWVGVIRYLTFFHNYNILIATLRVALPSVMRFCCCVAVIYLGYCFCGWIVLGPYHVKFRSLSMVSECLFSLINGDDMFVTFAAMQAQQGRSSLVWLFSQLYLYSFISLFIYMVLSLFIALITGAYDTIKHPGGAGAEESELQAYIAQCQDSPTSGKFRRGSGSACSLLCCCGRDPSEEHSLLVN
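Calcium fluorescence in TRPML1-DL cells induced overnight with Tet: a 110 s read after compound pin addition, then a 110 s antagonist read after challenge with 54-4 at 4 uM final (EC80).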
Sfp inh: qHTS Assay for Inhibitors of Bacillus subtilis Sfp phosphopantetheinyl transferase (PPTase); Biochemical Sfp PPTase activity, qHTS; AID 1490, 2009; 310,000 compounds, 3.5% hits; 4'-phosphopantetheinyl transferase ffp (Bacillus subtilis), Q9F4F7; Potency, µM, inactives show max response, negative = inhibition, actives largely listed as inhibitors; active = well fitted inhibition curve with a large enough effect; inconclusive = small, poorly fitted or top-dose-only effect, or another doubt; inactive = no such curve, though single readings can be large or run the other way;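 note: the enzyme is Sfp with the accession as filed and its product quenches rhodamine fluorescence; potency is the fitted concentration of half-maximal effect; 0% = enzyme reaction without inhibitor and -100% = no enzyme wells; top concentration of the series not given in the record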
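After 15 min at room temperature with compound, 15 nM Sfp received 5 uM rhodamine-CoA plus 12.5 uM BHQ-2-ybbR (50 mM Hepes pH 7.6, 10 mM MgCl2). Rate came from the fluorescence difference over 30 min, ex 525/em 598 nm.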
ClpP mod: qHTS Assay for Activators of ClpP. 340,000 compounds, 1.9% hits. purified B. subtilis ClpP, FRET peptide cleavage, 20 min. Potency, µM (titrated, usually from 57.5 µM), for the others: top-dose activity change, negative = active; active = well fitted falling curve with a large enough effect; inconclusive = small, poorly fitted or top-dose-only effect; inactive = no such curve, though single readings can be large or run the other way; note: potency is the fitted concentration of half-maximal effect; the source files actives as falling curves though it sought activators and does not explain the sign; nearly all actives have a fitted effect of over 65% in size; many hits overshoot -100%
Target sequence (P80244 whole entry, looked up): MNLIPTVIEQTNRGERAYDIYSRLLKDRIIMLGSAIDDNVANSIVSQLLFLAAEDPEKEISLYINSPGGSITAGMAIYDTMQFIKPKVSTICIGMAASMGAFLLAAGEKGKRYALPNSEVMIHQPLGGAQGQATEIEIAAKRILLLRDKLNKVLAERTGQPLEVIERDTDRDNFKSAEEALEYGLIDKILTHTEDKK
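FRET quenching reversal measured ClpP activation: 10 microg/mL B. subtilis ClpP at pH 8 with the FRET-FV decapeptide, read at 430 nm after 320 nm excitation. The 20-min minus 0-min signal was scaled between DMSO/no-enzyme wells and ADEP (5.8 microM final).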
gsp agonist: qHTS for Agonist of gsp, the Etiologic Mutation Responsible for Fibrous Dysplasia/McCune-Albright Syndrome: qHTS. gsp mutant cells, cAMP HTRF, 30 min; control for the full effect not named in the record. Potency, µM (titrated, usually from 76.9 µM), without a hit: at the top dose activation (cAMP increase), usual class: activators. 340,000 compounds, 0.13% hits. AID 624287, 2012; active = well fitted activation curve with a large enough effect; inconclusive = small, poorly fitted or top-dose-only effect, or another doubt; inactive = no such curve, though single readings can be large or run the other way; cell line not stated here;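 note: phosphodiesterase inhibitor Ro 20-1724 added with compounds to block cAMP breakdown; potency is the fitted concentration of half-maximal effect; nearly all actives have a fitted effect of over 60% in size; about a fifth of the inactives were tested at one dose only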
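Cells stably selected in G418 were plated at 2000/well, grown 16-24 hr, then given compounds in DMSO with the PDE inhibitor […] (300 uM solution added) for 30 min at 37C; cAMP was read by HTRF.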
gsp antag: qHTS for Antagonists of gsp, the Etiologic Mutation Responsible for Fibrous Dysplasia/McCune-Albright Syndrome: qHTS. gsp-mutant cells, cAMP HTRF, 30 min; control for the full effect not named in the record. Potency, µM (highest dose often 76.9 µM), for inactives: top-dose activity change, negative = inhibition, usual class: inhibitors. 340,000 compounds, 0.4% hits. AID 624288, 2012; active = falling curve of any shape with a large fitted effect; inconclusive = falling curve, mostly with a smaller effect; inactive = flat or rising curve; cell line not stated here;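 note: intracellular cAMP measured with PDE inhibitor Ro 20-1724 present during compound exposure; potency is the fitted concentration of half-maximal effect; % is set by controls: 0 for no effect and ±100 for the full control effect; nearly all actives have a fitted effect of over 65% in size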
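Cells, 2000/well, grown 16–24 h in DMEM 10% FBS with 0.5 mg/ml G418, then compounds plus […] (300 uM addition stock), 30 min at 37C. cAMP read by HTRF (cAMP-d2 and anti-cAMP antibody-K in lysis buffer) after 30 min RT.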
Active calls of the source: *; ? = inconclusive; nt = no result given; & = joins results of further samples; [ ] = dose if it differs, or a comment.

molecule | TRPV1 potentiator | Menin-MLL FL inh | TRPML1 blocker | Sfp inh | ClpP mod | gsp agonist | gsp antag
Cn1cccc1C(=O)NC(=O)CSc1cccc[n+]1[O-] | 12 | 3.7 | 9 | ? | 4.1% | 0% | 12%
O=C(OC(C(=O)NCc1ccco1)c1ccc(Cl)cc1)c1cccs1 (stereo not given) | -9 | 1.8 | 8 | 12% | 1.0% | 0% | -14%
Cn1c(N2CCCC2)nc2c1c(=O)n(Cc1ccc(Cl)cc1)c(=O)n2C | -16 | 7.7 | 18 | -22% | 1.2% | 37% | -1%
COc1cccc(CC(=O)OCC(=O)NC2CCCCCC2)c1 | -17 | nt | 5 | 14% | 3.0% | ? | 4%
O=C(O)C1CCCCC1C(=O)NCc1ccc(Cl)c(Cl)c1 (stereo not given) | -7 | 5.2 | -11 | 17% | -0.7% | 0% | -5%
O=C(Nc1nc2ccccc2[nH]1)c1ccc([N+](=O)[O-])cc1 | -4 | 0.3 | -2 | 10% | nt | -8%[15.4 µM] | 12%
COCc1cc(=O)[nH]c(SCC(=O)c2ccccc2)n1 | -4 | 1.1 | 2 | -27% | 1.9% | -1%[15.4 µM] | -12%
O=C(CN1CCN(S(=O)(=O)c2ccccc2)CC1)Nc1ccc(Cl)c(Cl)c1 | 1 | 2.8 | 4 | 5% | -1.3% | 5% | ?
CC(C)N1CCC(=O)NC1=O | nt | nt | 5 | nt | nt | -8% | 8%
COc1ccccc1OCCNC(=O)CNC(=O)c1ccc(C(C)(C)C)cc1 | 7 | nt | ? | nt | -2.5% | ? | 1%
CN1C2=CC=CC=CC2=[N+](C)C12C=CC(=[N+]([O-])[O-])C=C2[N+](=O)[O-] (stereo not given) | -23 | -5.6 | 11 | -15% | nt | -4%[15.4 µM] | -3%
CCOc1ccc(S(=O)(=O)N2CCC(C(=O)N3CCN(Cc4ccccc4)CC3)CC2)cc1 | 6 | -1.4 | -3 | -7% | -0.9% | -48%[inhibitor] | -12%
COCC1CCN(C(=O)C2CCC(=O)N(C3CCCCCC3)C2)CC1 (stereo not given) | -5 | nt | 8 | -6% | -4.3% | -47%[inhibitor] | 1%
CCOC(=O)c1cnc2c(cnn2C)c1Oc1ccc(OC)cc1 | -2 | -0.2 | -1 | 5% | 0.2% | -16% | -9%
COc1ccccc1NC(=S)NCc1ccc2c(c1)cc(C)n2C | 1 | 0.4 | 51 | 9% | nt | -1% | -17%
CCOC(=O)C1CCCN(S(=O)(=O)c2c(C)noc2C)C1 (stereo not given) | 2 | nt | -2 | 15% | 0.4% | 30% | 5%
COc1ccccc1OCC(=O)N/N=C/c1cccc2cccnc12 | -1 | nt | 3 | 5% | -0.9% | 3%[15.4 µM] | 6%
COCC(=O)N/N=C\c1ccccc1OC/C=C/c1ccccc1 | 3 | nt | 43 | -4% | -3.8% | -7% | -3%
O=C(NC1CC1)c1ccc(CSCc2ccc(Cl)cc2)o1 | nt | nt | 17 | nt | -3.3% | 29% | nt
N#CC1=C(S)N(c2ccc(F)cc2)C(c2ccco2)NC1=O (stereo not given) | 5 | 3.2 | 6 | 22µM* | 0.8% | 19%[15.4 µM] | -2%
O=C(Cn1c(C(=O)N2CCN(C3CCCC3)CC2)cc2sccc21)c1ccccc1 | -2 | 1.6 | -18 | 5% | -1.5% | -19% | -8%
Cc1cc(C)nc(SCC(=O)N/N=C/c2ccc3c(c2)OCO3)n1 | 3 | nt | -24 | 7% | -4.7% | 15% | -10%
C=CCNc1nc(N)c([N+](=O)[O-])c(Nc2cccc(Cl)c2)n1 | -4 | -17 | -9 | 10% | 0.2% | 3% | -2%
COc1ccc2cc(CO)n(C)c2c1 | 3 | nt | 0 | nt | 0.6% | 17% | 0%
COc1ccc(CNC(=O)C(c2ccc(O)cc2)N(Cc2ccco2)C(=O)c2snc(C(N)=O)c2N)cc1 (stereo not given) | 2 | nt | -8 | 9% | nt | ? | ?
COc1ccc(CN2CCNC(=O)C2CC(=O)N2CCCO2)c(OC)c1 (stereo not given) | -11 | -1.3 | 3 | 10% | 0.9% | 13% | 16%
COc1ccccc1CNS(=O)(=O)c1ccc2c(c1)NC(=O)CO2 | -10 | nt | ? | 21% | -1.1% | -23% | 22%
C[C@H](NC(=O)c1cc2cc(Cl)ccc2n1C)C(=O)N1CCC(C(=O)O)CC1 | 11 | -0.2 | -11 | 6% | nt | 2%[15.4 µM] | 1%
Cc1ccc(OCCn2cncn2)c([N+](=O)[O-])c1 | -5 | 1.3 | 10 | 12% | 3.6% | 0% | 7%
Cc1cc(/C=C2\SC(=Nc3ccc(N4CCOCC4)cc3)N(C)C2=O)c(C)n1-c1cccnc1 | -3 | -1.3 | 32 | -4% | 1.6% | 2%[15.4 µM] | -30%
Cc1cccc(NCc2cccc3ccccc23)n1 | 6 | -1.7 | -4 | 2% | -4.3% | ? | -5%
CCN(CC)c1ccc2cc(-c3nnc(-c4ccncc4)o3)c(=O)oc2c1 | ? | ? | ? | 9% | ? | -1% | -27%
COc1ccc(NC(=O)C(c2cc3c(cc2[N+](=O)[O-])OCO3)N(C)c2ccccc2)cc1 (stereo not given) | 18 | 0.1 | -5 | -14% | -3.1% | 8%[15.4 µM] | -20%
Cc1nnc(SCC(=O)Nc2nc(-c3ccccc3)cs2)n1N | ? | 1.3 | -2 | -7% | 0.4% | -9% | -1%
CCC(C#CCN1CCCCC1)(CC)OCCC#N | -7 | 4.9 | -1 | 28% | 1.4% | 11% | 13%
Cc1ccc(NC(=O)CN(C)CC(=O)Nc2ccc(N3CCOCC3)cc2)cc1F | -2 | 8.1 | 4 | 2% | -0.1% | -9% | -2%
CN1CCN(CCC(=O)N/N=C/c2ccccc2F)CC1 | -4 | 2.2 | -10 | 6% | nt | 2%[15.4 µM] | 4%
COc1ccc(Cc2nnc(NC(=O)C3CC(=O)N(c4ccccc4C)C3)s2)cc1OC (stereo not given) | 8 | nt | 23 | nt | -1.9% | -8%[15.4 µM] | -5%
O=C(CN1CCCC1)NC1C2CC3CC(C2)CC1C3 (stereo not given) | 13 | 0.6 | 10 | 6% | -2.9% | 8% | 18%
COc1ccc(C(OCC(O)CNC(C)c2ccccc2)c2ccc(OC)cc2)cc1 (stereo not given) | 7 | -3.9 | 15 | -4% | nt | ? | 4%
COc1ccc(NC(=O)c2sc3nc(N4CCOCC4)c4c(c3c2N)CC(C(C)C)OC4)c(OC)c1 (stereo not given) | 5 | 0.7 | 5 | 7% | -16% | 21% | -17%
COCC1CCN(C(=O)c2ccc3nc(Cc4cccc(Cl)c4)oc3c2)CC1 | nt | nt | 20 | nt | -0.4% | -17% | nt
O=C(NCc1ccco1)c1ccc2c(c1)N(Cc1ccccc1)CCS2 | -6 | 2.0 | 11 | -10% | 3.7% | 0% | ?
COc1cccc(NC(=O)CN(C)C(=O)CCCc2nc3ccccc3c(=O)[nH]2)c1 | 11 | nt | 12 | nt | 0.5% | ? | 6%
Cc1nn(C)c(Cl)c1CN1CCCC(C(=O)Nc2ccc(-c3cscn3)cc2)C1 (stereo not given) | -28 | nt | 16 | 12% | 25µM* | 29% | 2%
CC(C)Cc1[nH]c(=O)c(C#N)c2c1CCCC2 | 5 | -2.6 | 5 | 3% | ? | ? | -2%
O=C(NCCS(=O)(=O)N1CCN(c2ccccc2F)CC1)c1cc(=O)c2ccccc2o1 | 30 | -3.8 | -17&7 | 9% | -5.5%&-2.0% | ? | -1%
Cc1cccn2c(=O)c3cc(C(=O)NCCN4CCOCC4)c(=N)n(Cc4cccnc4)c3nc12 | -26 | nt | 14 | 25% | 4.0% | ? | -4%
CCC(=O)N1CCc2cc(S(=O)(=O)CCC(=O)Nc3ccc(OC)c(OC)c3)ccc21 | 4 | -1.8 | 22 | 5% | 0.6% | ? | 12%
CCOC(=O)COc1nc(OC)nc(N2CCOCC2)n1 | -7 | 4.2 | 10 | 11% | -0.2% | -33%[inhibitor] | 3%
CCOC(=O)Cc1c(C)[nH]n(-c2ccccc2)c1=O | -21 | -4.0 | -12 | 5% | nt | 14%[15.4 µM] | -4%
O=C(COC(=O)c1cccnc1Nc1cccc(C(F)(F)F)c1)NC1CCS(=O)(=O)C1 (stereo not given) | -13 | -2.9 | -3 | 1% | -3.8% | 23% | -17%

Compounds shown so far containing a Cl atom (9):
molecule | TRPV1 potentiator | Menin-MLL FL inh | TRPML1 blocker | Sfp inh | ClpP mod | gsp agonist | gsp antag
O=C(OC(C(=O)NCc1ccco1)c1ccc(Cl)cc1)c1cccs1 (stereo not given) | -9 | 1.8 | 8 | 12% | 1.0% | 0% | -14%
Cn1c(N2CCCC2)nc2c1c(=O)n(Cc1ccc(Cl)cc1)c(=O)n2C | -16 | 7.7 | 18 | -22% | 1.2% | 37% | -1%
O=C(O)C1CCCCC1C(=O)NCc1ccc(Cl)c(Cl)c1 (stereo not given) | -7 | 5.2 | -11 | 17% | -0.7% | 0% | -5%
O=C(CN1CCN(S(=O)(=O)c2ccccc2)CC1)Nc1ccc(Cl)c(Cl)c1 | 1 | 2.8 | 4 | 5% | -1.3% | 5% | ?
O=C(NC1CC1)c1ccc(CSCc2ccc(Cl)cc2)o1 | nt | nt | 17 | nt | -3.3% | 29% | nt
C=CCNc1nc(N)c([N+](=O)[O-])c(Nc2cccc(Cl)c2)n1 | -4 | -17 | -9 | 10% | 0.2% | 3% | -2%
C[C@H](NC(=O)c1cc2cc(Cl)ccc2n1C)C(=O)N1CCC(C(=O)O)CC1 | 11 | -0.2 | -11 | 6% | nt | 2%[15.4 µM] | 1%
COCC1CCN(C(=O)c2ccc3nc(Cc4cccc(Cl)c4)oc3c2)CC1 | nt | nt | 20 | nt | -0.4% | -17% | nt
Cc1nn(C)c(Cl)c1CN1CCCC(C(=O)Nc2ccc(-c3cscn3)cc2)C1 (stereo not given) | -28 | nt | 16 | 12% | 25µM* | 29% | 2%
